Mtb H37Rv: Confirmatory growth inhibition assay against Mycobacterium tuberculosis H37Rv, potency (AID 1949) | most inactive calls were filed without a number and no value below 0 was filed | 1.6% of 100,000 active | inhibition, % at 10 µg/mL, or IC50 in µg/mL where a hit was titrated;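 active means confirmed in a dose series; inconclusive means about 50% or more but not retested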;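 further: bacteria grown 7 days with compound before Alamar blue readout; 0% = untreated bacteria and 100% = reference antibiotic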
An asterisk follows results filed as active. Some of the compounds tested; count on the stated rates, not on these rows.

Results for Cc1ccc(S(=O)(=O)C2CS(=O)(=O)CC2O)cc1 (stereo not drawn) ?
Mtb H37Rv: 3%

How did Fc1cccc(COc2ccccc2CNc2ccccc2)c1 do in these assays?
Mtb H37Rv: 2%

Results for O=C1NC2(CCCCCC2)Cc2ccccc21 ?
Mtb H37Rv: inactive

Results for Cc1c(NC(=S)NCC2CCCO2)c(=O)n(-c2ccccc2)n1C (stereo not drawn) ?
Mtb H37Rv: inactive

Results for Cc1cc(COc2ccccc2OCc2cc(C)no2)on1 ?
Mtb H37Rv: 1%

What do the screens show for `COc1ccc(NC(=O)CCC(=O)OCc2ccc(C(C)=O)cc2)cc1`?
Mtb H37Rv: inactive

Results for COc1ccc(N(CC(=O)Nc2cccc([N+](=O)[O-])c2C)S(=O)(=O)c2ccc(F)cc2)cc1 ?
Mtb H37Rv: 3%

Results for CCOC(=O)N1CCN(c2ccc(C(=O)c3ccccc3)cc2F)CC1 ?
Mtb H37Rv: 8%

What do the screens show for `Cc1ccc(NC(=O)Nc2nnc(C(c3ccccc3)c3ccccc3)s2)cc1C`?
Mtb H37Rv: inactive

What do the screens show for `Cc1c(NC(=O)Nc2ccccc2[N+](=O)[O-])c(=O)n(-c2ccccc2)n1C`?
Mtb H37Rv: inactive

What do the screens show for `Cc1ccc(NC(=O)CSc2nc(N)cc(=O)[nH]2)cc1Cl`?
Mtb H37Rv: inactive

Results for COc1ccc(-c2cc(-c3n[nH]c(=S)n3-c3ccccc3Cl)[nH]n2)cc1 ?
Mtb H37Rv: 4%

What do the screens show for `CCOC(=O)c1oc2cc(O)c(CC)cc2c(=O)c1-c1ccccc1Cl`?
Mtb H37Rv: inactive

What do the screens show for `Cc1c(C(=O)OC2CCCCC2)sc2nc[nH]c(=O)c12`?
Mtb H37Rv: 2%

What do the screens show for `CCOC(=O)C1=C(C)NC(C)=C(C(=O)OCC)C1c1cccs1`?
Mtb H37Rv: 6%

Results for CCOc1ccc(CNc2ccc3c(c2)nc(C)n3C)cc1 ?
Mtb H37Rv: inactive

How did CCSc1nc2ccccc2n1CC(=O)N1CCOCC1 do in these assays?
Mtb H37Rv: inactive

What do the screens show for `CC(C)C1=NN2C(=N)/C(=C/c3ccc(OCc4ccc(F)cc4)cc3)C(=O)N=C2S1`?
Mtb H37Rv: inactive

How did O=C(Nc1ccc(I)cc1)C1CCCC1 do in these assays?
Mtb H37Rv: inactive

What do the screens show for `O=C(CCN1C(=O)C2CC=C(Cl)CC2C1=O)Nc1ccc(Br)cc1` (stereo not drawn)?
Mtb H37Rv: inactive

Results for CCc1ccc(NC(=O)c2cc([N+](=O)[O-])ccc2N2CCCCCC2)cc1 ?
Mtb H37Rv: inactive

Results for CCCCC(=O)Nc1ccc(C(=O)Nc2ccc(S(=O)(=O)N3CCCCC3)cc2)cc1 ?
Mtb H37Rv: 3%

How did CCc1c(C)sc(NC(=O)c2cc(Cl)ccc2Cl)c1C(=O)OC do in these assays?
Mtb H37Rv: 8%

Results for Cn1c(SCCC(=O)O)nnc1-c1cccnc1 ?
Mtb H37Rv: inactive

Results for O=C(CN1CCN(C(=O)c2ccco2)CC1)Nc1ccc([N+](=O)[O-])cc1C(=O)c1ccccc1 ?
Mtb H37Rv: inactive

Results for CCOC(=O)c1c(NC(=S)NC(=O)c2ccc(CC)cc2)sc2c1CCCC2 ?
Mtb H37Rv: inactive

Results for O=C(Nc1ccccn1)c1cccc(S(=O)(=O)N2CCCC2)c1 ?
Mtb H37Rv: inactive

How did Cc1cc(Cl)cc(Br)c1OCCCCNC1CCCC1 do in these assays?
Mtb H37Rv: inactive

How did Cc1oc2c(C)c(OC(=O)c3ccco3)ccc2c(=O)c1-c1nc2ccccc2s1 do in these assays?
Mtb H37Rv: inactive

How did Cc1ccc(C)c(N2C(=O)CC(N3CCC(C(N)=O)CC3)C2=O)c1 (stereo not drawn) do in these assays?
Mtb H37Rv: inactive

Results for Cc1cc(NC(=O)c2ccc(N(C)S(C)(=O)=O)cc2)ccc1Br ?
Mtb H37Rv: inactive

How did COc1ccc(C2CC(=O)NC(SCC(=O)Nc3nccs3)=C2C#N)cc1OC (stereo not drawn) do in these assays?
Mtb H37Rv: inactive

How did CC1=C(C(=O)OC2CCCCC2)C(c2cccc(Cl)c2Cl)CC(=O)N1 (stereo not drawn) do in these assays?
Mtb H37Rv: inactive

How did CCCc1sc(NC(=O)c2cccnc2)nc1-c1ccc(Br)cc1 do in these assays?
Mtb H37Rv: inactive

How did Cc1cc(I)cc(C)c1NC(=O)CSc1nc2ccccc2[nH]1 do in these assays?
Mtb H37Rv: inactive

What do the screens show for `CCC(CC)n1[nH]c(=O)c2c(C)cc(C)nc21`?
Mtb H37Rv: 12%

Looked up by compound from the list above:
How did Cc1ccc(C)c(N2C(=O)CC(N3CCC(C(N)=O)CC3)C2=O)c1 (stereo not drawn) do in these assays?
Mtb H37Rv: inactive

How did Cc1cc(I)cc(C)c1NC(=O)CSc1nc2ccccc2[nH]1 do in these assays?
Mtb H37Rv: inactive

Results for Cc1cc(NC(=O)c2ccc(N(C)S(C)(=O)=O)cc2)ccc1Br ?
Mtb H37Rv: inactive

The list continues.
How did COc1ccc(CSc2nc3sc4c(c3c(=O)n2-c2ccccc2)CC(C)(C)OC4)cc1 do in these assays?
Mtb H37Rv: inactive

What do the screens show for `COC(=O)C1=C(C)N(c2ccc(S(N)(=O)=O)cc2)C(=O)C1`?
Mtb H37Rv: inactive

Results for C=CCN1C(=O)C(O)(CC(=O)c2ccncc2)c2cc(Br)ccc21 (stereo not drawn) ?
Mtb H37Rv: inactive

How did CCOc1ccc(OCc2cccc(C(=O)N3CCOCC3)c2)cc1 do in these assays?
Mtb H37Rv: 0%

How did COc1ccc(NC(=O)c2ccc(NC(=O)Cc3ccc(Cl)cc3)cc2)cc1 do in these assays?
Mtb H37Rv: 0%

Results for O=S(=O)(Cc1ccccc1Cl)N1CCCC1 ?
Mtb H37Rv: inactive

What do the screens show for `Cc1cccc(C)c1OCc1nnc(SCC(=O)c2ccc(Br)cc2)n1C`?
Mtb H37Rv: inactive

How did COC(=O)C(NS(=O)(=O)c1ccc(F)cc1)c1ccccc1 (stereo not drawn) do in these assays?
Mtb H37Rv: inconclusive

Results for COc1ccc(S(=O)(=O)N2CCC(C(=O)NCCc3ccccc3)CC2)cc1OC ?
Mtb H37Rv: inactive

Results for CC(C)c1ccc(CN2CCN(c3ccc([N+](=O)[O-])cc3)CC2)cc1 ?
Mtb H37Rv: inconclusive

How did O=C(Nc1nc2ccc(Cl)cc2s1)C1COc2ccccc2O1 (stereo not drawn) do in these assays?
Mtb H37Rv: inconclusive

Results for CCn1c(SCC(=O)Nc2ccccc2)nnc1C1CC1 ?
Mtb H37Rv: 1%

Results for Cc1ccccc1NC(=O)CSc1n[nH]c(-c2ccncc2)n1 ?
Mtb H37Rv: inactive

Results for CC(=O)c1cccc(NC(=S)NC(=O)c2ccc3ccccc3c2)c1 ?
Mtb H37Rv: inactive

What do the screens show for `COCCCNCCOCCOc1cccc(C(C)C)c1`?
Mtb H37Rv: inactive

Results for Cc1cc(C)cc(NC(=S)N2CCN(c3ncccn3)CC2)c1 ?
Mtb H37Rv: inactive

Results for COC(=O)c1ccc(NC(=O)C(C)Oc2cccc(Cl)c2)cc1 (stereo not drawn) ?
Mtb H37Rv: 1%

How did COc1ccc(NC(=O)CSc2nnc(-c3cccs3)n2CCc2ccccc2)cc1 do in these assays?
Mtb H37Rv: inactive

What do the screens show for `COc1cc(CNC(=O)c2cc(SC)ccc2Cl)cc(OC)c1OC`?
Mtb H37Rv: inactive

How did CCN(CC)CC(=O)Nc1ccccc1 do in these assays?
Mtb H37Rv: inactive

Results for CC(Oc1ccc(Cl)cc1Cl)C(=O)Nc1ccc(C(=O)N2C(C)CCCC2C)cc1 (stereo not drawn) ?
Mtb H37Rv: 4%

Results for COc1cc(Cl)c(S(=O)(=O)NCCN2CCOCC2)cc1Cl ?
Mtb H37Rv: inactive

Results for O=C(Nc1ccc(Br)cc1C(=O)O)c1ccco1 ?
Mtb H37Rv: inactive

How did N#CC1=C(N)Oc2n[nH]c(-c3ccccc3)c2C1c1ccccc1 (stereo not drawn) do in these assays?
Mtb H37Rv: 0%

Results for CC(C)(C)CC(=O)Nc1ccc2c(c1)OCCO2 ?
Mtb H37Rv: inactive

What do the screens show for `CCn1c(SCC(=O)Nc2cccc(Cl)c2C)nnc1-c1ccc(Br)cc1`?
Mtb H37Rv: inactive

What do the screens show for `O=C(NCc1nc(-c2ccccc2)cs1)c1ccccc1`?
Mtb H37Rv: inactive

How did CSc1nc(C)cc(Oc2ccc(=O)[nH]n2)n1 do in these assays?
Mtb H37Rv: inactive

How did CCc1cccc(CC)c1NC(=O)CCCOc1cc(C)ccc1C do in these assays?
Mtb H37Rv: inactive

What do the screens show for `N/C(=N\OC(=O)c1cccc2ccccc12)c1ccc(Cl)cc1`?
Mtb H37Rv: 2%

Results for O=C(N/N=C/c1ccncc1)c1cc(C23CC4CC(CC(C4)C2)C3)[nH]n1 ?
Mtb H37Rv: inactive

How did COc1ccc(NS(=O)(=O)c2ccc(NC(=O)C(C)(C)C)cc2)cc1 do in these assays?
Mtb H37Rv: inactive

How did CC(=O)c1ccc(NC(=S)N(C)N)cc1 do in these assays?
Mtb H37Rv: inactive

What do the screens show for `Cc1noc(C)c1C(=O)N1CCN(CCc2ccccc2)CC1`?
Mtb H37Rv: inactive

How did CC(=O)NCCOc1nc(N(C)C)nc(N2CCCCC2)n1 do in these assays?
Mtb H37Rv: inactive

How did Cc1cc(Br)cc(C)c1OCC(=O)Nc1ccccc1F do in these assays?
Mtb H37Rv: inactive

Results for Cc1ccccc1NC(=O)CSc1nnc(-c2ccccc2)c(-c2ccccc2)n1 ?
Mtb H37Rv: inactive

Results for Cc1cc(C)c(S(=O)(=O)Nc2ccc(C)cc2[N+](=O)[O-])c(C)c1 ?
Mtb H37Rv: 9%

What do the screens show for `O=C(Nc1ccc(-c2noc(/C=C/c3ccccc3)n2)cc1)c1ccco1`?
Mtb H37Rv: 1%

How did CC(C)C12CN3CC(C(C)C)(CN(C1)C3c1ccc([N+](=O)[O-])cc1)C2=O (stereo not drawn) do in these assays?
Mtb H37Rv: 3%

Results for O=C(CSc1nnc2scc(-c3ccccc3)n12)Nc1nsc(-c2ccc(Cl)cc2)n1 ?
Mtb H37Rv: 1%

How did O=C(NNC(=O)c1cccs1)c1cccnc1 do in these assays?
Mtb H37Rv: 1%

What do the screens show for `CCN1CCN(C(=S)Nc2ccc(OC)cc2OC)CC1`?
Mtb H37Rv: inactive

What do the screens show for `CC(NC(=O)c1ccc(=O)[nH]c1)c1ccccc1` (stereo not drawn)?
Mtb H37Rv: inactive

How did Cc1ccccc1OCCNC(=O)c1ccc(Cl)cc1Cl do in these assays?
Mtb H37Rv: inactive

How did C=CCn1c(SCC(=O)NCCc2ccccc2)nnc1-c1ccccc1 do in these assays?
Mtb H37Rv: inactive

Results for CCOC(=O)c1ccc2nc(C)cc(Nc3cccc([N+](=O)[O-])c3)c2c1 ?
Mtb H37Rv: inactive

What do the screens show for `COC(=O)Cc1c(C)c2ccc(OCC=C(C)C)cc2oc1=O`?
Mtb H37Rv: inactive

5 entries from above, sorted by length of the SMILES, high to low:
How did CC(C)C12CN3CC(C(C)C)(CN(C1)C3c1ccc([N+](=O)[O-])cc1)C2=O (stereo not drawn) do in these assays?
Mtb H37Rv: 3%

Results for CCOC(=O)c1ccc2nc(C)cc(Nc3cccc([N+](=O)[O-])c3)c2c1 ?
Mtb H37Rv: inactive

What do the screens show for `O=C(Nc1ccc(-c2noc(/C=C/c3ccccc3)n2)cc1)c1ccco1`?
Mtb H37Rv: 1%

How did C=CCn1c(SCC(=O)NCCc2ccccc2)nnc1-c1ccccc1 do in these assays?
Mtb H37Rv: inactive

How did O=C(NNC(=O)c1cccs1)c1cccnc1 do in these assays?
Mtb H37Rv: 1%

Back to the main list; the two compounds before the break are reprinted first.
Results for CCOC(=O)c1ccc2nc(C)cc(Nc3cccc([N+](=O)[O-])c3)c2c1 ?
Mtb H37Rv: inactive

What do the screens show for `COC(=O)Cc1c(C)c2ccc(OCC=C(C)C)cc2oc1=O`?
Mtb H37Rv: inactive

How did O=C1CC(Sc2nc3ccccc3s2)C(=O)N1Cc1ccccc1 (stereo not drawn) do in these assays?
Mtb H37Rv: inactive

Results for O=C(NC(=S)Nc1cc(-c2nc3ccccc3s2)ccc1Cl)c1ccccc1 ?
Mtb H37Rv: inactive

What do the screens show for `CCOC(=O)Cc1csc(NC(=O)C(CC)Oc2ccccc2)n1` (stereo not drawn)?
Mtb H37Rv: inactive

How did FC(F)(F)c1cc(-c2ccc(Cl)cc2)nc2ncnn12 do in these assays?
Mtb H37Rv: 5%

Results for COc1ccc(S(=O)(=O)N2CCC(N3CCN(C)CC3)CC2)cc1 ?
Mtb H37Rv: inactive

What do the screens show for `O=C(Nc1ccc(OC(F)(F)C(F)F)cc1)Nc1cccc(Cl)c1`?
Mtb H37Rv: 0.75µg/mL*

Results for COc1cccc(C(=O)Nc2sc(C)c(C)c2C#N)c1 ?
Mtb H37Rv: 5%

What do the screens show for `CC(C)(C)c1cc(C(F)(F)F)c(C#N)c(SCc2ccc(C(=O)O)cc2)n1`?
Mtb H37Rv: inactive

What do the screens show for `Cc1cc(C)nc(NS(=O)(=O)c2ccc(NC(=O)COc3ccc(C)c(C)c3)cc2)n1`?
Mtb H37Rv: inactive

How did Cc1nc(C2CC(=O)OC23CCCCC3)cs1 (stereo not drawn) do in these assays?
Mtb H37Rv: inactive

How did CCOC(=O)N1CCN(C(=O)COc2ccc(S(=O)(=O)NC(C)C)cc2)CC1 do in these assays?
Mtb H37Rv: inactive

How did COc1ccc(Cc2nnc(SCC(=O)Nc3ccc(Br)cc3C(C)C)n2C)cc1 do in these assays?
Mtb H37Rv: inactive

Results for COc1ccc(-c2nc3cc(Cl)ccc3o2)cc1OC ?
Mtb H37Rv: inactive

Results for CC(C)(C)c1ccc(OCC(=O)Nc2ccccc2C(F)(F)F)cc1 ?
Mtb H37Rv: 2%

What do the screens show for `COc1cc(C=O)ccc1OCc1nnnn1-c1ccc(C)cc1`?
Mtb H37Rv: inactive

How did CCOC(=O)C(Oc1ccc2c(C)c(CC(=O)OC)c(=O)oc2c1C)c1ccccc1 (stereo not drawn) do in these assays?
Mtb H37Rv: inconclusive
